Assay outcomes (PubChem)
GIRK2 act = activators of human GIRK2 potassium channels | G protein-activated inward rectifier potassium channel 2 (Homo sapiens), P48051 | HEK293-GIRK2 thallium flux, Thallos fluorescence | calls only for hits at 25 µM | 63,000 compounds, 0.05% hits;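 active = among the strongest 0.2% of first-round signals and kept after retests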;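 note: first round at about 10 µM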
Target sequence (P48051 whole entry, looked up): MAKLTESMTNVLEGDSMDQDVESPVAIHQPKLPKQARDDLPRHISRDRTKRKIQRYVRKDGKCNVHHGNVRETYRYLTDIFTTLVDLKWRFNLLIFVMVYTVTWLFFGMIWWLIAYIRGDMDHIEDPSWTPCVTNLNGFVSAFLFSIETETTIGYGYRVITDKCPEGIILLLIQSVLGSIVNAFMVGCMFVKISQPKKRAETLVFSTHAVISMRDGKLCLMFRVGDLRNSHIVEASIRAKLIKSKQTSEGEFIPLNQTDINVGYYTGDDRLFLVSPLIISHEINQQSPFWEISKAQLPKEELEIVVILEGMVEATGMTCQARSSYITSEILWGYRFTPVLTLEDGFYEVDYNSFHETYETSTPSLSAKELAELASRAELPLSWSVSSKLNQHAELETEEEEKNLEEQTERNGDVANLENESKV
Calls only; i = inactive; + = active, no number. Some of the compounds tested; rates above refer to the full screens.

The opening 5 records, ahead of the listing:
GIRK2 act	SMILES
i	O=C(CN1CCCC(COCc2ccccc2)C1)NCc1ccccc1Cl (centres undefined)
i	O=C(NCc1ccsc1)NC(c1ccccc1)c1ccccc1
i	O=C(CNC(=O)c1c[nH]c2ccccc12)Nc1ccc(F)c(Cl)c1
i	COc1cccc(CSc2nc(CC(=O)NCc3ccco3)cc(=O)[nH]2)c1
i	COc1c2c(cc3oc(C)cc(=O)c13)O[C@H](C(C)(C)O[C@@H]1O[C@H](CO)[C@@H](O)[C@H](O)[C@H]1O)C2

Main list, from the first entry:
GIRK2 act	SMILES
i	O=C(CN1CCCC(COCc2ccccc2)C1)NCc1ccccc1Cl (centres undefined)
i	O=C(NCc1ccsc1)NC(c1ccccc1)c1ccccc1
i	O=C(CNC(=O)c1c[nH]c2ccccc12)Nc1ccc(F)c(Cl)c1
i	COc1cccc(CSc2nc(CC(=O)NCc3ccco3)cc(=O)[nH]2)c1
i	COc1c2c(cc3oc(C)cc(=O)c13)O[C@H](C(C)(C)O[C@@H]1O[C@H](CO)[C@@H](O)[C@H](O)[C@H]1O)C2
i	COc1cc(NC(=O)N2CC(c3nc(C)no3)C2)cc(OC)c1OC
i	COc1ccc2c(c1OC)C(=O)OC2CC(=O)c1cccc(O)c1 (centres undefined)
i	CCOC(=O)c1ccc(NC(=O)Cn2cc(-c3nc(-c4ccc(OC)cc4)no3)ccc2=O)cc1
i	Cc1nn(C)c(C)c1S(=O)(=O)NCCC(O)c1ccco1 (centres undefined)
i	O=C(CCC(=O)N1CCC(Oc2ccc(C(F)(F)F)cn2)CC1)c1ccc(Cl)cc1

The final four compounds of the section before lead into the next.
GIRK2 act	SMILES
i	COc1ccc2c(c1OC)C(=O)OC2CC(=O)c1cccc(O)c1 (centres undefined)
i	CCOC(=O)c1ccc(NC(=O)Cn2cc(-c3nc(-c4ccc(OC)cc4)no3)ccc2=O)cc1
i	Cc1nn(C)c(C)c1S(=O)(=O)NCCC(O)c1ccco1 (centres undefined)
i	O=C(CCC(=O)N1CCC(Oc2ccc(C(F)(F)F)cn2)CC1)c1ccc(Cl)cc1
i	Cc1c(Cl)cccc1S(=O)(=O)N1CC(c2nc(-c3ccccn3)no2)C1
i	c1ccc2c(c1)c1ccccc1n2CCCCN1CCNCC1
i	CCN1CCN(CC(O)COc2cccc3ccccc23)CC1 (centres undefined)
i	O=c1ccc(-c2nc(-c3ccc(F)cc3)no2)cn1Cc1cc(=O)n2ccccc2n1
i	Cc1ccc(N2CC(C(=O)Nc3cnoc3)CC2=O)cc1 (centres undefined)
i	Cc1ccc(Cn2nc3n(Cc4ccccc4)c(=O)c4ccc(C(=O)NCC(C)C)cc4n3c2=O)cc1
i	CCOc1ccc(-c2cc3c(=O)n(CC(=O)Nc4cc(C)ccc4OC)ccn3n2)cc1
i	COC(=O)c1ccccc1NC(=O)c1nnn(-c2ccc(Cl)cc2)c1C
+	O=C(CSc1nc(-c2ccccc2)[nH]c1-c1ccc(F)cc1)NCC1CCCO1 (centres undefined)
i	CCOC(=O)Cc1csc(NC(=O)C2CCCN(c3ccc(-c4cccs4)nn3)C2)n1 (centres undefined)
i	O=C(NCCOc1ccccc1)N1CCOC2(CCOCC2)C1
i	CCCCn1c(=O)c2c(nc3n2CCN3c2cc(OC)ccc2OC)n(C)c1=O
i	COc1ccccc1NC(=O)Nc1nnc(-c2sc(C)nc2C)o1
i	COc1ccc(Cl)cc1S(=O)(=O)NC1CCN(Cc2noc(-c3ccccc3)n2)C1 (centres undefined)
i	COc1ccc(-c2noc(Cc3nnc(-c4ccc(C)c(C)c4)o3)n2)cc1OC
i	COc1ccc(C(=O)CC2(O)C(=O)Nc3ccc([N+](=O)[O-])cc32)cc1 (centres undefined)
i	COC(=O)c1ccc(NC(=O)Cn2cnc3c(c2=O)CN(Cc2ccccc2)CC3)cc1
i	Cc1noc(CNC(=O)C2CCN(C(=O)c3cc4ccccc4oc3=O)CC2)n1
i	COc1cc(O)cc(C)c1C(=O)O[C@@H]1[C@@H](CO)OC(n2ccc(=O)[nH]c2=O)[C@@H]1O (some centres undefined)
i	Cc1cc(C(=O)Nc2ccc3c(c2)N(S(=O)(=O)c2ccc(F)cc2)CCC3)c(C)o1
i	Cn1c(=O)c2c(nc(N3CCCC3)n2CCSc2ncccn2)n(C)c1=O
i	CCOc1ccc(-n2nnc3c(=O)n(Cc4nc(-c5cccc(Br)c5)no4)cnc32)cc1
i	Cc1cc(C(=O)NC2CC(O)C(CO)C2)no1 (centres undefined)
i	Cc1ccc(C2CC(c3cccs3)=NN2S(C)(=O)=O)o1 (centres undefined)
i	CCCc1nnsc1C(=O)NCCc1cc(C)no1
i	Cc1c(C(=O)OCC(=O)Nc2cccc(Cl)c2)nnn1-c1ccccc1
i	COc1cccc(-c2noc(C3CC(=O)N(c4ccc5c(c4)OCO5)C3)n2)c1OC (centres undefined)
i	Cn1nnnc1SCC(=O)N1CCN(CCn2cccn2)CC1
i	Cc1csc(CN2CCN(C(=O)c3c(-c4ccccc4Cl)noc3C)CC2)n1
i	COc1ccc(C(=O)NCCS(=O)(=O)N2CCN(Cc3ccccc3)CC2)cc1
i	COc1ccc(Cc2nnc(C3CCN(S(C)(=O)=O)CC3)s2)cc1
i	CCCc1cc(SCc2ccc(C(=O)OC)cc2)ncn1
i	Nc1c(C(=O)NCCc2ccccc2)nnn1-c1cccc(Br)c1
i	COc1cccc(CNC(=O)CS(=O)(=O)c2cccs2)c1
i	CN1CCc2c(sc(NC(=O)c3ccc(Cl)s3)c2-c2nc3ccccc3s2)C1
i	N#C/C(C(N)=O)=C1/SC(Cc2cc(Cl)ccc2Cl)C(=O)N1c1ccc(Cl)cc1 (centres undefined)
i	O=C(c1csc(Nc2ncccn2)n1)N1CCN(Cc2ccccc2)CC1
i	N#Cc1ccc(COCC2CCN(C(=O)CC3CCCC3)CC2)cc1
i	C=CCOc1ccc(C2C(C(=O)c3sc(C)nc3C)=C(O)C(=O)N2CCN(C)C)cc1 (centres undefined)
i	COc1ccc(-c2nnc(NC(=O)C3CCN(S(=O)(=O)c4ccc(F)cc4)CC3)o2)cc1
i	COCCCn1c(C(=O)N2CCCCC2)cc2c(=O)n3cccc(C)c3nc21
i	Cc1cc(OCC(=O)Nc2ccc(C#N)cc2)nc(N2CCCCC2)n1
i	O=C(/C=C/c1ccccc1)N1CC(c2nc(-c3cccs3)no2)C1
i	Cc1nc(-c2nnc(NC(=O)c3ccc(S(=O)(=O)N(C)C)cc3)o2)cs1
i	CCc1nccn1CC1CCN(S(=O)(=O)C2CC2)CC1
i	COCCn1c(N2CCN(C/C=C\c3ccccc3)CC2)nc2c1c(=O)[nH]c(=O)n2C
i	O=C(CCc1csc2nc(C3CC3)cn12)Nc1nc2ccccc2s1
i	O=C(Cn1cnc2ccccc21)Nc1cnc(N2CCN(c3ccccn3)CC2)nc1
i	Cc1cccc(NC(=O)c2coc(NC(=O)C3CC3)n2)c1C
i	CN(C)c1ncc2c(=O)n(Cc3ccccc3)c(=O)[nH]c2n1

Other compounds follow:
GIRK2 act	SMILES
i	CCCOc1ccc(CNC(=O)c2snc(-c3ccccn3)c2N)cc1
i	COCCn1c(=O)c2c(nc(-n3nc(C)c(C)c3C)n2CCC(C)C)n(C)c1=O
i	CCc1nnc(C2CCN(C(=O)c3cc(Cl)ccc3OC)CC2)s1
i	Cc1cc(NC(=O)c2ccc(S(=O)(=O)N3CCCCCC3)cc2)n(-c2nc3ccccc3s2)n1
i	Cc1nc2sc(C(c3ccc(F)cc3)N3CCC(Cc4ccccc4)CC3)c(O)n2n1 (centres undefined)
i	Cc1cc(-c2nnc(NC(=O)C3=COCCO3)o2)c(C)o1
i	O=S(=O)(c1ccc(Cl)s1)N1CCCC(COCc2ccccc2)C1 (centres undefined)
i	CS(=O)(=O)c1cccc(S(=O)(=O)N2CCC(Cc3ccccc3)CC2)c1
i	O=C(CN1C(=O)CCC1=O)NCC(c1ccc(F)cc1)N1CCOCC1 (centres undefined)
i	CCCn1c(=O)c2c(nc3n2CCN3c2ccc(OC)c(Cl)c2)n(C)c1=O

As a short view, some entries already given:
GIRK2 act	SMILES
i	Cc1cc(NC(=O)c2ccc(S(=O)(=O)N3CCCCCC3)cc2)n(-c2nc3ccccc3s2)n1
i	Cc1nc2sc(C(c3ccc(F)cc3)N3CCC(Cc4ccccc4)CC3)c(O)n2n1 (centres undefined)

Further structures.
GIRK2 act	SMILES
i	COc1ccc(C)cc1S(=O)(=O)Nc1ccc(Nc2cc(-n3cccn3)nc(C)n2)cc1
i	O=C(Nc1nnc(Cc2ccccc2)o1)NC(c1ccccc1)c1ccccc1
i	O=C(CN1CCC(c2nnc(C(F)(F)F)o2)CC1)NCc1ccccc1
i	O=S(=O)(NCCC1=CCCCC1)C1CC1
i	COc1ccc(-c2nc(Cn3nnc(C(=O)NCc4ccccc4)c3N)c(C)o2)cc1
i	CC(=O)OCC1OC(Oc2ccc(C(C)=O)cc2)C(OC(C)=O)C(OC(C)=O)C1OC(C)=O (centres undefined)
i	COCCn1c(=O)c2c(nc3n2CCN3c2ccc(C)c(Cl)c2)n(C)c1=O
i	CC(=O)Nc1ccc(S(=O)(=O)N2CCOC(Cc3ccccc3)C2)cc1 (centres undefined)
i	CN1CC(C(=O)N2CCC(Oc3ncccn3)CC2)CC1=O (centres undefined)
i	COc1ccc(Nc2c(C(=O)N3CCOCC3)cnc3nc(C)ccc23)cc1Cl
i	COc1cccc(N2CC(C)Cn3c2nc2c3c(=O)n(CC(N)=O)c(=O)n2C)c1 (centres undefined)
i	O=C(Nc1nccs1)c1ccc(-n2cnnn2)cc1
i	COc1ccc(S(=O)(=O)c2cnc(SCC(=O)Nc3cccc(C(C)=O)c3)[nH]c2=O)cc1
i	COc1ccc(-c2ccc(=O)n(Cc3nc(-c4ccccc4Br)no3)n2)cc1
i	Cn1c(-c2nc(C(=O)NN3CCOCC3)cs2)cc2ccccc21
i	NS(=O)(=O)c1ccc(CCNC(=O)c2csc3nc(-c4ccccc4)cn23)cc1
i	O=C(c1ccc2c(c1)OCO2)N1CCCSCC1CN1CCCC1 (centres undefined)
i	CC(C)S(=O)(=O)c1ccc(CC(=O)NCC2(CO)CC2)cc1
i	O=C(CSc1nccn1-c1ccc(C(=O)NCc2cccs2)cc1)NCc1ccccc1
i	Cc1c(Cl)cccc1S(=O)(=O)N(Cc1ccoc1)Cc1cccs1
i	CC1CCN(C(=O)C2=NN(Cc3nc(C4CC4)no3)c3ccccc3S2(=O)=O)CC1
i	CCOc1ccc(-c2ccc(OCCNC(=O)c3cc4ccccc4oc3=O)nn2)cc1
i	CC(=O)N1CCC(C(=O)c2cc(F)ccc2O)CC1
i	COc1ccc(N2C(=O)CSC23C(=O)N(CC(=O)NC2CCCC2)c2ccccc23)cc1 (centres undefined)
i	O=C(Cn1nc(-c2ccc(F)cc2)c2sc(N3CCCC3)nc2c1=O)NCc1ccc(F)cc1
i	COc1ccc(NC(=O)CSc2nc3cc(-c4ccccc4)sc3c(=O)n2C)cc1
i	CC(C(=O)N1CCN(S(C)(=O)=O)CC1)n1nc(-c2ccco2)ccc1=O (centres undefined)
i	O=C(/C=C/c1cccc([N+](=O)[O-])c1)c1ccc(O)cc1
i	COCCn1cnc2c(-c3ccccc3)cn(CC(=O)NCc3cccs3)c2c1=O
i	COC(=O)c1ccc(Cn2cc(-c3nc(-c4cnccn4)no3)ccc2=O)o1

The final 6 records of the section before lead into the next.
GIRK2 act	SMILES
i	O=C(Cn1nc(-c2ccc(F)cc2)c2sc(N3CCCC3)nc2c1=O)NCc1ccc(F)cc1
i	COc1ccc(NC(=O)CSc2nc3cc(-c4ccccc4)sc3c(=O)n2C)cc1
i	CC(C(=O)N1CCN(S(C)(=O)=O)CC1)n1nc(-c2ccco2)ccc1=O (centres undefined)
i	O=C(/C=C/c1cccc([N+](=O)[O-])c1)c1ccc(O)cc1
i	COCCn1cnc2c(-c3ccccc3)cn(CC(=O)NCc3cccs3)c2c1=O
i	COC(=O)c1ccc(Cn2cc(-c3nc(-c4cnccn4)no3)ccc2=O)o1
i	COc1ccc(-n2c(=O)c3ccccc3n(CC(=O)N3CCCC3)c2=O)cc1
i	C/C=C/c1ccc(OCC(O)CN2CCN(C)CC2)c(OC)c1 (centres undefined)
i	CCOC(=O)NCc1ccsc1
i	COc1ccc(OC)c(C2=C(c3cn(C)c4ccccc34)C(=O)NC2=O)c1
i	CC1=C(C(=O)Nc2ccc(C)c(C)c2)C(c2ccc([N+](=O)[O-])cc2)NC(=O)N1 (centres undefined)
i	COc1ccccc1NC(=O)c1ccc(S(=O)(=O)N(C)C2CCCC2)cc1
i	O=C(CSc1nnc(Cn2ccc(=O)[nH]c2=O)o1)Nc1ccc(OC(F)(F)F)cc1
i	CN(Cc1ccccc1)c1ccc(-c2noc(CN3CCN(C4CCCCC4)CC3)n2)cn1
i	Cc1cc(C(=O)Nc2ccc(N3CCCS3(=O)=O)cc2)c(C)o1
i	O=C(NCc1ccc(C(=O)c2cccs2)s1)Nc1cccc(C(F)(F)F)c1
i	COCCN(Cc1ccsc1)C(=O)C(c1ccccc1)c1ccccc1
i	COC(=O)Cn1c(=O)c2c(nc3n(-c4ccc(C)cc4)c(C)cn23)n(C)c1=O
i	Cc1ccc(NC(=O)c2nnn(-c3cc(Cl)ccc3C)c2C)cc1
i	CC(C)Oc1nc2c(c(=O)n(C)c(=O)n2C)n1Cc1cccc2ccccc12
i	CCCCCC(=O)CC[C@H]1C=CC(=O)C1C/C=C\CCCC(=O)O (some centres undefined)
i	O=C(c1ccc2ncsc2c1)N1CCC(COCc2ccc(Cl)cc2)CC1
i	O=C(NCc1cc(-c2ccncc2)n(C2CCCC2)n1)Nc1ccc(C(F)(F)F)cc1
i	CCCCn1c(N2CCN(CC(=O)OCc3ccccc3)CC2)nc2c1c(=O)[nH]c(=O)n2C
i	CCS(=O)(=O)Nc1ccc(N2CCCS2(=O)=O)cc1
i	COc1ccc(C(=O)Nc2cc(C)nn2-c2nc3c(cnn3-c3ccccc3)c(=O)[nH]2)c(OC)c1
i	COc1ccc(Cl)cc1NC(=O)C(=O)NCCN1CCN(c2ccccc2F)CC1
i	COc1cc(Cl)cc2c1OC=CC(C(=O)Nc1ccc3ccc(=O)oc3c1)=C2
i	CCN1CCc2c(sc(NC(=O)Cc3ccccc3)c2-c2nc3ccccc3s2)C1
i	O=C(NCCOc1ccc(-c2ccc(F)cc2)nn1)c1ccccc1Br
i	CN(C)CC#CCNC(=O)c1ccc(-c2ccccc2)cc1
